Assay outcomes: PubChem BioAssay, National Center for Advancing Translational Sciences (NCATS)
VACV mCherry inh – inhibitors of vaccinia virus infection (mCherry reporter signal). Vaccinia virus mCherry reporter infection, fluorescence; about a quarter of the inactives have no number. Potency, µM (doses to about 36.5 µM), inactives show top-dose activity change, negative = inhibition, actives largely listed as inhibitors. 0.63% of 310,000 active; active = well fitted inhibition curve with a large enough effect; inconclusive = small, poorly fitted or top-dose-only effect; inactive = no such curve, though single readings can be large or run the other way; tested in A549 cells; note: nearly all actives have a fitted effect of over 35% in size; inactives centre near -10
VACV Venus inh – vaccinia inhibition (Venus reporter) | Vaccinia virus Venus reporter expression, fluorescence | Potency, µM (top dose mostly 36.5 µM), for inactives: at the top dose activity change, negative = inhibition, hits mostly inhibitors | 0.46% of 330,000 active | AID 720580; active means well fitted inhibition curve with a large enough effect; inconclusive means small, poorly fitted or top-dose-only effect; inactive means no such curve, though single readings can be large or run the other way; tested in A549 cells; note: nearly all actives have a fitted effect of over 30% in size; inactives centre near -10
The depositor's hits bear a star; i = inactive; ? = inconclusive; / = no result given; & = joins results of further samples; [ ] = remark or other dose. % is set by controls: 0 for no effect and ±100 for the full control effect; potency is the fitted concentration of half-maximal effect.

SMILES	VACV mCherry inh	VACV Venus inh
CC1CCC(NC(=O)C2(C)Cc3ccccc3C(=O)N2Cc2ccccc2Cl)CC1 (stereo not drawn)	-8%	-7%
CCOCCn1cnc2sc(C(=O)NCCCN3CCOCC3)c(C)c2c1=O	i	-11%
CCOc1ccc(/C=N/n2nnnc2N)cc1O	?	-13%
CCOC(=O)C1=C(O)/C(=C/c2cccc(OC)c2O)N=C1C	-10%	4%
COc1ccc(-c2nc3ccccc3c(=O)n2NC(=O)Cc2ccccc2)cc1	-4%	-13%
CCOC(=O)c1cc2c(=O)n3ccccc3nc2n(CCCOC)c1=NC(=O)C(C)(C)C	-7%	-8%
Cc1ccccc1CN1C(=O)c2ccccc2S(=O)c2ccc(C(=O)NC3CCC(C)CC3)cc21 (stereo not drawn)	0%	-16%
O=C(COC(=O)c1ncc(Cl)c(Cl)c1Cl)c1ccc(Cl)s1	i	-7%
COc1cccc(CNC(=O)c2ccc3c(c2)sc2nc(-c4cccc(OC)c4)cn23)c1	-13%	-8%
Cc1cc(C(C)(C)C)c(O)c(C)c1CC1=NCCN1	-12%&-28%	-20%&-14%&-30%
COc1ccc(CCNC(=O)c2cc3c(=O)n4cccc(C)c4nc3n2C)cc1	-7%	-10%
CCCCc1c(O)nc(SCC(=O)N2CCOCC2)n(-c2ccccc2C)c1=O	-11%	?
COc1ccc(N2CCN(C(=O)CCn3nc(C)c(S(=O)(=O)N4CCCC4)c3C)CC2)cc1	-15%	-15%
CCN(CCO)c1ccc(Nc2cc(-c3ccc(-c4ccccc4)cc3)ncn2)cc1	32µM*	-25%
OC(CCN1CC2CCC(CC2)C1)(Cc1ccccc1)c1ccco1 (stereo not drawn)	-23%	-1%
Cc1cc(C)c(NC(=O)Cn2c(=O)oc3cc(S(=O)(=O)N4CCCCCC4)ccc32)c(C)c1	-29%	-27%
COc1ccc(C2C(C#N)=C(N)SC(N)=C2C#N)cc1OC	-18%	-1%
CN(C(=O)C1CCCO1)c1nnc(-c2ccccn2)s1 (stereo not drawn)	-16%	-3%
Cc1ccc(C(=O)c2cn(CC(=O)NCc3ccccc3)c3nc(C)ccc3c2=O)cc1	3%	7%
CC(=O)Nc1ccc(S(=O)(=O)NCC2CCC(C(=O)N3CC(C)CC(C)C3)CC2)cc1 (stereo not drawn)	-27%	-25%
CCN1C(=O)C2(/C(=C(\O)c3ccc4c(c3)OCCO4)C(=O)C(=O)N2CCCOC)c2ccccc21 (stereo not drawn)	/	-8%
CN(C)C1=NC[C@H](Cc2ccccc2)N1CC1CCCCC1	i	-28%
COc1ccc(CCNC(=O)CSc2nnc(NC(C)=O)s2)cc1OC	-10%	-3%
C/C=C\C=C/C(=O)Nc1cccc(C2=NOC3(C2)C[C@H](C(N)=O)N(C(=O)CC)C3)c1 (stereo partly drawn)	i	-2%
Cc1c(NS(=O)(=O)c2cc(C(=O)OCC(=O)c3ccccc3F)ccc2Cl)c(=O)n(-c2ccccc2)n1C	i	-10%
COC(C(=O)NC(C(C)C)C(C)C)c1ccccc1 (stereo not drawn)	-13%	-8%
CCCCN1CN(Cc2ccco2)CNC1=S	-13%	-8%
COc1ccc(NC(=O)c2cnc(C)cn2)cc1-n1cnnn1	i	-13%
CC(C(=O)Nc1c2c(cc3c1CCC3)CCC2)N1CCCC1 (stereo not drawn)	-2%	4%
CC(=O)N1CCc2cc(S(=O)(=O)NC(C(=O)Nc3ccc4c(c3)OCCO4)C(C)C)ccc21 (stereo not drawn)	1%	10%
COc1ccc(OC)c(/C=N/NC(=O)c2cc(-c3ccc(C)o3)nc3ccccc23)c1	-14%	-2%
COc1ccc2c(c1)OC/C(=C\c1ccc(OC)c(O)c1)C2=O	i	?
CCC(C)c1ccc(S(=O)(=O)N2CCN(S(=O)(=O)c3ccc(NC(C)=O)cc3)CC2)cc1 (stereo not drawn)	5%	0%
CCc1ccc(C(=O)COC(=O)c2cccnc2Cl)cc1	-14%	-9%
CC(C)Nc1oc(Cc2cccc3ccccc23)nc1C#N	-23%	-7%
CCCC#Cc1cnc2c(c1)C(=O)N([C@H](C)CO)C[C@@H](C)[C@H](CN(C)S(=O)(=O)c1cccc(OC)c1)O2	-14%	-24%
O=C(c1ccc(COc2ccccc2Cl)o1)N1CCCC1	-3%	-15%
O=C(Cc1ccccc1[N+](=O)[O-])N1CCN(c2ccc(F)cc2)CC1	i	-11%
O=C(Nc1ccc2oc(-c3ccccc3Cl)nc2c1)c1ncn[nH]1	i	-17%
COc1ccc([C@H]2CC(=O)C=C(c3cc(C(F)(F)F)cc(C(F)(F)F)c3)C2)cc1	i	-15%
COc1ccc(-c2nnn(Cc3ccccc3)n2)cc1	-13%	-15%
CC(=O)Nc1ccc(NC(=O)CSc2nc3ccccc3o2)cc1	?	-2%
COc1cc(C2CC(=O)N(CC(=O)Nc3ccccc3F)c3ccccc3S2)cc(OC)c1OC (stereo not drawn)	-12%	-8%
O=C(Nc1ccc(C2CCCCC2)cc1)C1CCCN(c2ncccn2)C1 (stereo not drawn)	-9%	-2%
CCOc1ccc(C(=O)NCCCN2CCOCC2)cc1OCC	1%	-4%
Cc1ccc2sc(N3CCN(C(=O)CCS(=O)(=O)c4ccc(Cl)cc4)CC3)nc2c1C	-7%	0%
COc1cc(NC(=O)c2ccc(C)cc2)c(OC)cc1NC(=O)CN1CCOCC1	/	-4%
Cc1ccc2nc(-c3ccc(C)o3)c(Nc3ccccc3)n2c1	-15%	-5%
O=C(Cc1c(O)c2ccccc2oc1=O)c1ccc(F)cc1	-8%	-3%
CCOC(=O)N1CCN(C(=O)Cn2cc3c(n2)CCCC3)CC1	/	-14%

Additional results:
SMILES	VACV mCherry inh	VACV Venus inh
CC1C(c2ccc3c(c2)OCO3)c2cc3c(cc2OC1N1CCOCC1)OCO3 (stereo not drawn)	i	-22%
CCOc1ccc(CNCCc2ccc(S(N)(=O)=O)cc2)cc1	-1%	-10%
O=C(c1ccccc1)c1cccn1CC(=O)N1CCN(c2ccc(F)cc2)CC1	-22%[1.46 µM]	-14%
CCOC(=O)CSc1nc(C)c(C(C)=O)cc1C(N)=O	-2%	3%
Cc1ccc(NC(=O)CSc2nc3ccccc3nc2Cc2ccccc2)c(Cl)c1	-1%	11%
CCC1(c2ccc(N)cc2)CCC(=O)NC1=O (stereo not drawn)	-15%	-7%&-18%
O=C(NNC(=O)c1ccccc1O)c1ccc(S(=O)(=O)Nc2ccccc2F)cc1	?	-16%
Cc1cc(NC(=O)Nc2ccc(F)cc2)no1	-9%	-10%
Cc1cc(NC(=O)Cn2nnc3sc4c(c3c2=O)CCCC4)no1	1%	-15%
Cc1cc(C)c(-c2csc(NC(=O)/C=C/c3cccs3)n2)c(C)c1	?	?
CN(C)C(=O)CCc1nc2sc3c(c2c(=O)[nH]1)CCCC3	-7%	-4%
CCC(C)N(C(=O)CCC(=O)Nc1cc(C)on1)C(C(=O)NC(C)(C)C)c1ccccc1Cl (stereo not drawn)	-14%	-7%
O=C(CNc1cccc2ccccc12)N/N=C/c1ccc(OC(=O)/C=C/c2ccco2)cc1	-16%	-5%
COc1cccc(CN2CCN(Cc3[nH]c4ccccc4c3C)CC2CCO)c1 (stereo not drawn)	-16%	-21%
NC(=O)COC(=O)CC12CC3CC(CC(Br)(C3)C1)C2	-19%	-12%
Cc1cc(C)c(S(=O)(=O)c2ccccc2F)c(=O)[nH]1	-22%	-19%
CCc1ccc(OCCn2ccnc2)cc1	-15%	-2%
COc1cc(C(=O)NCC(=O)N/N=C/c2ccco2)cc(OC)c1OC	-4%	-21%
COc1ccc(N2CCN(C(=O)CCn3cnc4onc(-c5ccc(F)cc5)c4c3=O)CC2)cc1	-19%	-14%
CC1CCN(Cc2nc(Cl)c3c4c(sc3n2)CCC4)CC1	-12%	-18%
CCCC(=O)Nc1cccc(NC(=O)c2ccc([N+](=O)[O-])cc2Cl)c1	i	-13%
O=C(/C=C/c1ccc(F)cc1)NC(=S)Nc1ccccc1O	-18%	-17%
Fc1ccc2cc(-c3cccnc3)ncc2c1	i	-16%
COc1ccccc1N(C)S(=O)(=O)c1ccc(C(=O)Nc2cc(F)ccc2C)cc1	-3%	-12%
CCN(C(=O)COC(=O)C1CCN(S(=O)(=O)c2c(Cl)cccc2Cl)CC1)C1CCCCC1	-10%	-8%

Given with each value named: part of the list above
smiles: Cc1ccc(NC(=O)CSc2nc3ccccc3nc2Cc2ccccc2)c(Cl)c1
  VACV mCherry inh: -1% | VACV Venus inh: 11%
smiles: CCC1(c2ccc(N)cc2)CCC(=O)NC1=O (stereo not drawn)
  VACV mCherry inh: -15% | VACV Venus inh: -7%&-18%
smiles: O=C(NNC(=O)c1ccccc1O)c1ccc(S(=O)(=O)Nc2ccccc2F)cc1
  VACV mCherry inh: ? | VACV Venus inh: -16%
smiles: Cc1cc(NC(=O)Nc2ccc(F)cc2)no1
  VACV mCherry inh: -9% | VACV Venus inh: -10%

Following part.
SMILES	VACV mCherry inh	VACV Venus inh
Cc1cccc(CCNC(=O)C2CCC(CNc3c(N4CCCC4)c(=O)c3=O)CC2)c1 (stereo not drawn)	i	0%
Oc1[nH]c2c(Cl)cc(Cl)cc2c1N=NC(=S)NCC1CCCO1 (stereo not drawn)	i	-12%
COc1ccc(NC(=O)Nc2c(SC)nsc2SC)cc1	10%	0%
Cc1ccccc1CS(=O)(=O)c1ncc(Cl)c(C(=O)Nc2nnc(C(C)C)s2)n1	?	?
Cc1cc(/C(N)=N/OC(=O)Nc2ccccc2)no1	-11%	-3%
CCc1nnc2c(Nc3ccc(Br)c(C)c3)nc3ccccc3n12	-8%	0%
CCCCNC(=O)CN1C(=O)NC2(CCOc3ccccc32)C1=O (stereo not drawn)	-3%	-14%
CC(=O)N/C(=C/c1ccc2c(c1)OCO2)C(=O)NC(Cc1ccccc1)C(=O)O (stereo not drawn)	-4%	-10%
CN(C)Cc1c(C(=O)N/N=C/c2ccncc2)nnn1-c1nonc1N	-15%	2%
Cc1ccc(C)c(OCC(=O)OCC(=O)Nc2c(C)nn(-c3ccccc3)c2C)c1	-13%	-15%
CC(C)(C)C(=O)Nc1nnc(SCC(=O)NC2CC2)s1	7%	-12%
COc1ccc2sc(-c3ccc(N(C)C)cc3)c(C#CC(C)(C)O)c2c1	-21%	?

Exported with values under each structure: part of the list above
The line under a structure holds: VACV mCherry inh, VACV Venus inh
COc1ccc(N2CCN(C(=O)CCn3cnc4onc(-c5ccc(F)cc5)c4c3=O)CC2)cc1
→ -19%, -14%
CC1CCN(Cc2nc(Cl)c3c4c(sc3n2)CCC4)CC1
→ -12%, -18%
CCCC(=O)Nc1cccc(NC(=O)c2ccc([N+](=O)[O-])cc2Cl)c1
→ i, -13%
O=C(/C=C/c1ccc(F)cc1)NC(=S)Nc1ccccc1O
→ -18%, -17%
Fc1ccc2cc(-c3cccnc3)ncc2c1
→ i, -16%
COc1ccccc1N(C)S(=O)(=O)c1ccc(C(=O)Nc2cc(F)ccc2C)cc1
→ -3%, -12%
CCN(C(=O)COC(=O)C1CCN(S(=O)(=O)c2c(Cl)cccc2Cl)CC1)C1CCCCC1
→ -10%, -8%
Cc1cccc(CCNC(=O)C2CCC(CNc3c(N4CCCC4)c(=O)c3=O)CC2)c1 (stereo not drawn)
→ i, 0%
Oc1[nH]c2c(Cl)cc(Cl)cc2c1N=NC(=S)NCC1CCCO1 (stereo not drawn)
→ i, -12%
COc1ccc(NC(=O)Nc2c(SC)nsc2SC)cc1
→ 10%, 0%
Cc1ccccc1CS(=O)(=O)c1ncc(Cl)c(C(=O)Nc2nnc(C(C)C)s2)n1
→ ?, ?
Cc1cc(/C(N)=N/OC(=O)Nc2ccccc2)no1
→ -11%, -3%
CCc1nnc2c(Nc3ccc(Br)c(C)c3)nc3ccccc3n12
→ -8%, 0%
CCCCNC(=O)CN1C(=O)NC2(CCOc3ccccc32)C1=O (stereo not drawn)
→ -3%, -14%
CC(=O)N/C(=C/c1ccc2c(c1)OCO2)C(=O)NC(Cc1ccccc1)C(=O)O (stereo not drawn)
→ -4%, -10%
CN(C)Cc1c(C(=O)N/N=C/c2ccncc2)nnn1-c1nonc1N
→ -15%, 2%
Cc1ccc(C)c(OCC(=O)OCC(=O)Nc2c(C)nn(-c3ccccc3)c2C)c1
→ -13%, -15%
CC(C)(C)C(=O)Nc1nnc(SCC(=O)NC2CC2)s1
→ 7%, -12%
COc1ccc2sc(-c3ccc(N(C)C)cc3)c(C#CC(C)(C)O)c2c1
→ -21%, ?

Compounds were not picked by outcome; 0.86% or so of the library scored in one or more.
